High-throughput results deposited in PubChem BioAssay by National Center for Advancing Translational Sciences (NCATS).
A488 fluor: compound fluoresces in the A488 spectral region; compound autofluorescence, A488 spectral region, dye equivalency; stronger effect = higher value; max dye equivalency, M; actives 0.1% (n = 59,000); active = above 10 nM dye equivalent; inconclusive = 1 to 10 nM; inactive = 1 nM or less; about half of its hits are not listed in these tables;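 note: highest value over a series up to 38 µM; compound alone in buffer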
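Readout is A488 dye-equivalent concentration, calibrated by a per-plate six-point Alexa 488 series. Compounds in 100 mM Tris buffer pH 8.0 were incubated 15 min at room temperature. Plates were imaged using 480 nm excitation/540 nm emission filters.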
AID923: qHTS Assay for Allosteric/Competitive Inhibitors of Caspase-1: Spectroscopic Profiling in AFC Spectral Region; compound fluorescence, AFC spectral region (405/520 nm); almost no hit is shown here; Potency, µM (top dose mostly 57.5 µM), inactives show top-dose fluorescence increase, usual class: activators; actives 1.1% (n = 75,000); active = well fitted activation curve with a large enough effect; inconclusive = small, poorly fitted or top-dose-only effect;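 note: potency is the fitted concentration of half-maximal effect; 0% is about no effect; scaled to a free AFC standard on each plate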
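Titrations up to 57 uM read every 20 sec for 3 min (405/520 nm) with 50 nM caspase 1 and 5 uM Ac-WEHD-AFC, pH 7.5 HEPES buffer. Fluorescence-vs-time intercept gave baseline, scaled against on-plate AFC standard.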
A647 autofl: compound autofluorescence in A647 spectral region; 59,000 tested, under 10 active; AID 592; max dye-equivalent concentration, M; Compound fluorescence, A647 channel (570/671 nm), Tris buffer; active means above 1 µM dye equivalent; inconclusive means 0.1 to 1 µM; inactive means 0.1 µM or less;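 note: values scaled relative to a standard on each plate; highest value over a series up to 38 µM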
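Tris 100 mM pH 8.0; cpd + A647 stds pin-transferred; 15 min RT; CCD imager, ex 570/em 671. Output = A647-equivalent conc. per cpd conc.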
TSHR agonist: agonists of human thyroid stimulating hormone receptor. P16473. HEK293-CNG-TSHR cells (CNG channel as cAMP sensor), membrane potential dye, cAMP. Potency, µM (top dose mostly 57.1 µM), without a hit: at the highest dose activation, hits mostly activators. actives 0.48% (n = 73,000); active = well fitted activation curve of enough size with the parental cells flat; inconclusive = any curve in the parental cells; inactive = parental cells flat and receptor cells flat or falling; note: potency is the fitted concentration of half-maximal effect; % of control where 0% means no effect; weak receptor curves with flat parental cells got no call and are not listed
Target sequence (P16473 whole entry, looked up): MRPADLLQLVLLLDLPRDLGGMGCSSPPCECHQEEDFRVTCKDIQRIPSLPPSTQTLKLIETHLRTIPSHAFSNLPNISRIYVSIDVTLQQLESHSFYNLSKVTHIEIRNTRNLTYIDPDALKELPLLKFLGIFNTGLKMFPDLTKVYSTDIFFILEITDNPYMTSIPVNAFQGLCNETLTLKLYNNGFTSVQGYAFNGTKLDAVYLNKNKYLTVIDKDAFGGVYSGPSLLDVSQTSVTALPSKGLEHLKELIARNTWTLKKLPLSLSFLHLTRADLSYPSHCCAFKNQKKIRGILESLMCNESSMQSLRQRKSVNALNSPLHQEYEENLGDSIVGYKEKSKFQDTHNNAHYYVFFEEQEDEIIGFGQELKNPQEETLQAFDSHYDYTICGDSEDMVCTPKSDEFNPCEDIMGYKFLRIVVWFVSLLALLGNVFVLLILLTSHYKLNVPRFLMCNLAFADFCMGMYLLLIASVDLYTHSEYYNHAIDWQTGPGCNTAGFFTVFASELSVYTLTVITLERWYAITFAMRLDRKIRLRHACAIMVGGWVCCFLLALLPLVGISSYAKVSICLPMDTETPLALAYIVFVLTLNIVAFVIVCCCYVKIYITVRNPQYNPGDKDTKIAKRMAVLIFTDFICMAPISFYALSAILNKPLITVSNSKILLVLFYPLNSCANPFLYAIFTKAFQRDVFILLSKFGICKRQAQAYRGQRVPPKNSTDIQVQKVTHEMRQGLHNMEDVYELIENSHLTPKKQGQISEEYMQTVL
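HEK 293 cells stably expressing TSHR and a modified CNG channel, with CNG-only parental cells as counterscreen, were preloaded 60 min at room temperature with membrane potential dye containing 100 uM RO 20-1724. Compound exposure was 30 min, and depolarization was read as fluorescence at 590 nm.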
Resorufin fluor: compounds fluorescent in resorufin spectral region; actives 0.04% (n = 59,000); max dye-equivalent concentration, M; Compound fluorescence, resorufin region 547/598 nm, buffer; stronger effect = higher value; active = above 10 nM dye equivalent; inconclusive = 1 to 10 nM; inactive = 1 nM or less; a few of its hits are not listed in these tables; note: highest value over a series up to 38 µM
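Compounds in 100 mM Tris, pH 8.0, incubated 15 min at room temperature, then fluorescence read at 547 nm excitation/598 nm emission. Signal converted to dye-equivalent concentration via an on-plate six-point resorufin standard curve, per compound concentration.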
The depositor's hits bear a star; i = inactive; ? = inconclusive; · = no result given; & = joins results of further samples; [ ] = remark or other dose. An excerpt, so the mix of outcomes need not match the whole.

SMILES	A488 fluor	AID923	A647 autofl	TSHR agonist	Resorufin fluor
Nn1c(CN2CCCCC2)nc2ccccc2c1=O	i	1.2%	1e-09	3%	i
O=C(Nc1ccc(N2CCN(C(=O)c3ccccc3)CC2)c(Cl)c1)c1ccc(Br)o1	i	·	3.9e-08	·	i
O=C(C1CCCC1)N(c1ccccc1)C1C=CS(=O)(=O)C1 (centres undefined)	i	-0.8%	1e-09	6%	i
COc1ccc(CCC(=O)NCc2cn3ccsc3n2)cc1	i	0.8%	3.2e-09	-3%[11.4 µM]	i
[N-]=[N+]=CC(=O)CC(c1ccccc1)N1C(=O)c2ccccc2C1=O (centres undefined)	i	0.2%	1e-09	-6%	i
CCOC(=O)c1cn(-c2ccccc2)nc1-c1ccncc1	i	-0.8%	1e-09	23%	i
O=C(Cn1cccc1C(=O)c1ccccc1)NCCCN1CCOCC1	i	-2.5%	1.8e-08	0%[11.4 µM]	i
Cc1ccccc1C(=O)c1cccn1CC(=O)N1CCCCCC1	i	-0.6%	1.1e-08	2%	i
NCOC(=O)Cc1ccc(Br)cc1	i	0.6%[11.5 µM]	3.7e-08	1%[11.4 µM]	i
CN1CCC(=C2c3ccccc3C=Cc3ccccc32)CC1	i	-1.0%	1e-09&1e-09&6.8e-09	?	i
COC(=O)[C@@]1(Cc2ccc(OC)cc2)[C@H]2c3cc(C(=O)N(C)C)n(Cc4cc(F)c(F)c(F)c4)c3C[C@H]2CN1C(=O)c1ccccc1	·	1.2%	·	?	·
CCOC(=O)N1CCC(Nc2ccc3nnc(-c4ccccc4)n3n2)CC1	·	-0.8%	·	-12%	·

The final 4 compounds of the section before open the next one.
SMILES	A488 fluor	AID923	A647 autofl	TSHR agonist	Resorufin fluor
NCOC(=O)Cc1ccc(Br)cc1	i	0.6%[11.5 µM]	3.7e-08	1%[11.4 µM]	i
CN1CCC(=C2c3ccccc3C=Cc3ccccc32)CC1	i	-1.0%	1e-09&1e-09&6.8e-09	?	i
COC(=O)[C@@]1(Cc2ccc(OC)cc2)[C@H]2c3cc(C(=O)N(C)C)n(Cc4cc(F)c(F)c(F)c4)c3C[C@H]2CN1C(=O)c1ccccc1	·	1.2%	·	?	·
CCOC(=O)N1CCC(Nc2ccc3nnc(-c4ccccc4)n3n2)CC1	·	-0.8%	·	-12%	·
CCOC(=O)Nc1ccc2c(CN3C(=O)NC4(CCCC4)C3=O)cc(=O)oc2c1	i	6.1%	1e-09	15%	i
Cc1csc2ncc(C(=O)Nc3ccon3)c(=O)n12	i	-0.8%	2.2e-08	0%	i
O=C(CSc1nnc(-c2ccco2)n1CC1CCCO1)c1ccc(F)cc1 (centres undefined)	i	0.0%	2.7e-08	6%	i
COc1ccc(C(C(=O)NC2CCCC2)N(C(=O)c2ccco2)c2ccc3c(c2)OCO3)cc1OC (centres undefined)	i	-1.1%	2.2e-08	10µM*	i
COC1=CC(=O)OC12CCCCC2	·	2.9%	·	2%	·
COc1ccc(NC(=O)CSc2nnc(-c3cccnc3)n2Cc2ccco2)c(OC)c1	i	0.7%	3.5e-08	-1%	i
Cc1cc(C)c(NC(=O)NC(=O)c2cccc(F)c2)c(C)n1	i	1.9%	1e-08	2%[11.4 µM]	i
Cc1ccc(Cl)cc1NC(=O)COC(=O)C1CCCC1	i	1.6%	4.7e-09	0%	i
CCC1Oc2ccc(C)cc2N(CC(=O)N(Cc2cccnc2)Cc2ccc(C)o2)C1=O (centres undefined)	i	-0.7%	5.5e-09	?	i
COc1ccc(C(=O)NCC(=O)O)cc1	i	-0.4%	4.2e-09	6%	i
O=C(c1cccc2cccc(O)c12)N1CCCCC1	i	-1.5%	1e-09	6%	i
COc1ccc(C2N=C(c3ccccc3)C(C)(C)N2O)cc1OC (centres undefined)	·	-2.6%	·	3%[11.4 µM]	·
COc1cccc(NC(=O)N2CCCC2C(=O)NC2CC2)c1 (centres undefined)	i	-2.1%	4.6e-09	-7%	i
CC(C)CN1CC[C@@]2(CCCN(C(=O)c3cnccn3)C2)C1	i	0.5%	1.5e-08	6%	i
CC(=O)Nc1ccc(NC(=O)C2CCCN(c3nnc(-n4cccc4)s3)C2)cc1 (centres undefined)	i	-1.3%	1e-09	-3%	i
COc1ccc(N2C(=O)CSC2c2ccncc2)cc1 (centres undefined)	i	1.0%	1e-09	-1%	i
COc1ccc(NC(=O)N2CCCC3(CCN(S(C)(=O)=O)CC3)C2)cc1	i	4.4%	3.2e-09	?	i
OC[C@@H]1O[C@@H](O)[C@H](N=Cc2ccc3c(c2)OCO3)[C@@H](O)[C@@H]1O	i	0.6%[11.5 µM]	1e-09	4%[11.4 µM]	i
CCCCCC(=O)N1CC2(C)CN(C(=O)CCCCC)CC(C)(C1)C2=O	i	·	1.6e-09	·	i
COc1ccc(CCNC(=O)c2nc3ncccn3n2)cc1OC	i	-0.8%	6.2e-09	0%	i
O=c1cc(N2CCN(Cc3ccccc3)CC2)[nH]c(=O)n1Cc1ccc(F)cc1	i	-0.4%	3.4e-08	13%	i
CCCCOCCCNC(=O)CN1C(=O)c2ccccc2C1=O	·	-0.3%	·	0%[11.4 µM]	·
COc1ccc(-c2cc(C(F)(F)F)nc(N3CCCCC3)n2)cc1OC	i	-1.0%	3.7e-08	15%[11.4 µM]	i
O=C(CSc1n[nH]c(-c2ccncc2)n1)NC1CCS(=O)(=O)C1 (centres undefined)	i	7.8%	1e-09	0%	i
CC[C@@H]1O[C@]2(C=C[C@@H]1C)C[C@H]1C[C@H](CC=C(C)[C@@H](O[C@@H]3C[C@H](OC)[C@H](O[C@@H]4C[C@H](OC)[C@H](O)[C@H](C)O4)[C@H](C)O3)[C@@H](C)C=CC=C3CO[C@@H]4[C@@H](O)C(C)=C[C@@H](C(=O)O1)[C@]34O)O2	i	-2.0%[25.7 µM]	3.5e-08	3%[25.6 µM]	i
CCOC(=O)CSc1nnc(-c2ccc(NS(=O)(=O)c3ccc(C)cc3)cc2)o1	i	1.1%	2.2e-08	7%	i
CC1CN(C(=O)C2CCCCC2)C(C)CN1C(=O)C1CCCCC1 (centres undefined)	i	-1.3%	1e-09	?	i
O=C(NCCc1ccccn1)c1ccc(COc2ccccc2)o1	i	2.3%	2.7e-08	3%	i
CCOC(=O)c1[nH]c2cc(OC)c(OC)cc2c1NC(=O)CN(C)C1CCCCC1	i	-0.3%	3.9e-08	-1%	i
COc1cccc([C@H](O)Cn2cc(-c3ccc(CON=C(C)C)cc3)nn2)c1	·	2.0%[11.5 µM]	·	-7%[11.4 µM]	·
CC(C)CC(c1nnnn1CC1CCCO1)N1CCN(c2nc3ccccc3s2)CC1 (centres undefined)	i	0.2%	3.7e-09	6%	i
CCc1c(C)c2ccc(OCC(=O)N(C)C)c(C)c2oc1=O	i	-2.0%	1e-09	5%	i
CC1CN=C(NC2CCCCC2C)S1 (centres undefined)	i	-0.3%	1e-09	7%	i
CC(=O)c1c(C)[nH]c(C(=O)Nc2cccnc2)c1C	i	1.6%	7.5e-09	-5%	i
Cc1nn(C)c(C)c1S(=O)(=O)N1CCC(C(=O)NCC2COc3ccccc3O2)CC1 (centres undefined)	·	-3.0%	·	-3%	·
COCCn1nnnc1C(c1ccc(OC)cc1)N1CCN(c2ccccc2F)CC1 (centres undefined)	i	0.2%	1.2e-08	?	i
COc1ccc(-c2cc(C(=O)N/N=C\c3cc(OC)c(OC)c(OC)c3)[nH]n2)cc1	·	-0.7%	·	0%	·
O=C(O)CCc1nc2cccnc2n1Cc1ccccc1	i	1.4%	9.5e-09	26%	i
CC1CCN(C(=O)CSc2nnc(Cc3ccccc3)o2)CC1	·	3.3%	·	?	·
Cc1ccc(Cn2nnc3c(=O)n(Cc4cc(C)ccc4C)cnc32)cc1	i	1.7%	4.2e-09	?	i
Cc1cccc(C(=O)NCCN2CCN(c3ccccc3)CC2)c1	i	1.3%	4.1e-08	9%	i
O=C(CSc1nc2ccccc2o1)NCc1ccco1	·	-1.1%	·	9%	·
COc1cccc(CNC(=O)Nc2cccs2)c1	i	3.8%	2.2e-08	-13%	i
COCCCNc1nc(-c2ccncc2)nc2ccccc12	i	·	1e-09	·	i
COC(=O)CNC(=O)c1c(-c2c(Cl)cccc2Cl)noc1C	·	1.2%	·	-3%	·
COC(=O)c1ccc(C(NC(=O)OCc2ccccc2)/C(F)=C/[C@@H](C)C(=O)NCCN2CCOCC2)cc1 (some centres undefined)	·	4.2%	·	17%	·
COC(=O)c1ccc(C(/C=C/[C@@H](C)C(=O)NCCc2c[nH]c3ccccc23)NC(=O)OCc2ccccc2)cc1 (some centres undefined)	·	-0.1%	·	17%	·
N#C[C@H](C(=O)O)C(c1c(Cl)cccc1Cl)[C@H](C#N)C(=O)O	i	0.8%[11.5 µM]	1.5e-08	2%[11.4 µM]	i

Part of the list above, reformatted.
canonical_smiles,A488 fluor,AID923,A647 autofl,TSHR agonist,Resorufin fluor
O=C(O)CCc1nc2cccnc2n1Cc1ccccc1,i,1.4%,9.5e-09,26%,i
N#C[C@H](C(=O)O)C(c1c(Cl)cccc1Cl)[C@H](C#N)C(=O)O,i,0.8%[11.5 µM],1.5e-08,2%[11.4 µM],i
Cc1ccc(Cn2nnc3c(=O)n(Cc4cc(C)ccc4C)cnc32)cc1,i,1.7%,4.2e-09,?,i

Later entries:
SMILES	A488 fluor	AID923	A647 autofl	TSHR agonist	Resorufin fluor
NC(=O)c1oc2ccccc2c1NC(=O)C1CCCCC1	·	-1.5%	·	?	·
COC(=O)CCSCc1cn2cc(Cl)ccc2n1	i	1.0%	9.1e-09	0%	i
COc1ccc(C(=O)Nc2cccc(-c3nc4ncccc4o3)c2C)cc1OC	i	0.2%	1e-09	-1%	i
O=C(C1COc2ccccc2O1)N1CCN(c2ccccc2)CC1 (centres undefined)	i	-0.3%	1e-09	19%	i
COc1ccc(NC(=O)N2CC3(CCN(C(=O)c4cnccn4)CC3)C2)cc1	i	2.6%	1.2e-08	-2%	i
CC1=C(C(=O)NC2CCCCC2C)C2(CCC(C)CC2)OC1=O (centres undefined)	·	-1.1%	·	28%	·
OC1CN=C2C=CC=CN2C1 (centres undefined)	i	0.4%	1.4e-08	10%	i
CC(=O)OC[C@@H]1O[C@@H](O/N=C2/C[C@@H](O)[C@@H](O)[C@@H]3[C@@H]4C(=O)N(C5CCCCC5)C(=O)[C@H]4CC[C@@H]23)[C@H](OC(C)=O)[C@H](OC(C)=O)[C@@H]1OC(C)=O	·	-2.1%[11.5 µM]	·	1%[11.4 µM]	·
CC1CCN(C(=O)Cn2nc(C(F)(F)F)c3c2CCCC3)CC1	i	-1.7%	3.2e-08	7%	i
CCSc1nnc(NC(=O)CCc2ccccc2)s1	·	-1.1%	·	-2%	·
COc1ccc(C)c2sc(N3CCCC3)nc12	i	0.4%	4e-08	-10%	i
CCCS(=O)(=O)Nc1cc(C(F)(F)F)ccc1OCCOC	i	-2.8%	1.3e-09	4%	i
CC1CN(c2ccc(Oc3ccccc3)cc2)c2nc3c(c(=O)[nH]c(=O)n3C)n2C1 (centres undefined)	i	1.1%	1e-08	-31%[inhibitor]	i
Cc1ccc(C)n1-n1cnc2scc(-c3cccs3)c2c1=O	i	1.5%	2.2e-08	?	i
COc1ccccc1CN1CC[C@@]2(CCCN(C(=O)c3cc(C(F)(F)F)cc(C(F)(F)F)c3)C2)C1	i	2.4%	3.3e-08	?	i
Cc1ccc(N=C2SCCCN2C(=O)c2ccco2)cc1Cl	i	0.8%	3e-08	?	i
FC(F)Oc1ccccc1C1CC(c2ccc(Br)s2)Nc2ncnn21 (centres undefined)	i	-0.6%	1.1e-08	?	i
O=C(NCc1ccco1)c1cccnc1-c1nc2ccccc2s1	?	2.9%	2.2e-08	16%	i
Cc1cccc(NC(=O)CSc2nnc(-c3ccccc3)n2N)c1C	i	-1.5%	9.2e-09	3%[11.4 µM]	i
Cc1cc(C(=O)CN2C(=O)c3ccccc3C2=O)c(C)n1Cc1cccs1	i	0.5%	2.8e-09	3%	i
